Screens: PubChem BioAssay, ICCB-Longwood Screening Facility, Harvard Medical School
AID504770 = growth inhibition of E. coli YBA685, primary screen, V. cholerae RctB inhibitors; z-score (concentration not given with the values); E. coli YBA685 rctB-dependent plasmid, OD600 growth, 3 h; hits give low values; hit rate 0.27% among 130,000;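 active = z-score under -2 on both plates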;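 also: wells of about 30 µL received 100 nL stock; score is relative to mean and SD of the test wells; the first replicate is given; strong numbers were not always called active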
CapD inh = Bacillus anthracis CapD inhibitors, primary screen, biochemical, fluorescence intensity; hit rate 0.23% among 140,000; z-score (no concentration beside the values); purified CapD enzyme, fluorescence intensity read-out; hits give low values; some hits fall short of the stated cut;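 active = z-score under -4 in either of two replicates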;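 also: stock transfer was 100 nL into about 40 µL; score is relative to mean and spread of the plate; one replicate is shown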
* marks the source's active call; other numbers are inactive results; i = inactive; . = no result given.

Preview:
Sequence of screens – AID504770 | CapD inh
Cc1ccc(NC(=O)CSc2nc3cc(C(=O)NCCCOC(C)C)ccc3c(=O)n2Cc2ccco2)cc1
 : . | 0.77
COCC(=O)NC1CCN(Cc2nnnn2Cc2ccc3c(c2)OCO3)CC1
 : -0.45 | .
CCNC(=O)C1CCN(C2=NS(=O)(=O)C(c3ccc(C)cc3)=C2CC)CC1
 : -0.05 | -1.7
COc1ccc(-c2cn3ccc(C)cc3n2)cc1F
 : . | 46
O=C(c1ccccc1Cl)n1cc(Cl)cn1
 : -0.3 | .
O=C(NC1CC2CCC(C1)N2Cc1nnnn1Cc1ccco1)NC12CC3CC(CC(C3)C1)C2 (stereo not given)
 : -0.95 | .
COC(=O)c1sc2nc(-c3ccccc3)cc(-c3ccc(OC)cc3)c2c1N
 : . | 2.2

The listing, from the first entry:
Sequence of screens – AID504770 | CapD inh
Cc1ccc(NC(=O)CSc2nc3cc(C(=O)NCCCOC(C)C)ccc3c(=O)n2Cc2ccco2)cc1
 : . | 0.77
COCC(=O)NC1CCN(Cc2nnnn2Cc2ccc3c(c2)OCO3)CC1
 : -0.45 | .
CCNC(=O)C1CCN(C2=NS(=O)(=O)C(c3ccc(C)cc3)=C2CC)CC1
 : -0.05 | -1.7
COc1ccc(-c2cn3ccc(C)cc3n2)cc1F
 : . | 46
O=C(c1ccccc1Cl)n1cc(Cl)cn1
 : -0.3 | .
O=C(NC1CC2CCC(C1)N2Cc1nnnn1Cc1ccco1)NC12CC3CC(CC(C3)C1)C2 (stereo not given)
 : -0.95 | .
COC(=O)c1sc2nc(-c3ccccc3)cc(-c3ccc(OC)cc3)c2c1N
 : . | 2.2
Sc1sccc1C=NC1CCCCC1
 : -0.45 | -0.99
Cc1cccc2sc(N(CCN(C)C)C(=O)c3ccc4ncsc4c3)nc12
 : -0.9 | -0.11
Cc1ccc(C)n1-c1nc(SCCCC(=O)O)n[nH]1
 : 0.65 | -0.24
NC(=O)CSc1nc2cc(S(=O)(=O)Nc3cccc(Cl)c3)ccc2o1
 : -0.6 | .
Clc1ccc(CSc2nc(-c3ccccc3)c(-c3ccccc3)[nH]2)cc1
 : . | 1.1
COC(=O)c1ccc(CSc2ccc3nnc(-c4ccccn4)n3n2)o1
 : 1.8 | .
O=C1CCC/C1=C/c1ccccc1
 : 0 | -0.4
CCOCCC(=O)Nc1cc(C)cc(C)c1
 : -0.55 | 0.46
O=C(c1cnc2nc3ccccc3n2c1)c1cc(F)ccc1O
 : 0.65 | .
Cc1cc(C)cc(NC2=NCCCS2)c1
 : 0.15 | .
CCCN1CCC(N2CCC(C(=O)OCC)CC2)CC1
 : -0.9 | -0.14
CC(=O)Nc1nonc1N=Cc1ccc(F)cc1
 : 0.45 | 0.2
COc1cc(C2=N/C(=C\c3ccc(OC)c(OC)c3OC)C(=O)O2)cc(OC)c1OC
 : . | 0.33

Other structures follow:
Sequence of screens – AID504770 | CapD inh
CC(C)NC(=O)c1c(O)nc2ccccn2c1=O
 : -1 | 79
CCOC(=O)c1c(NC(=O)CCN2C(=O)/C(=C/c3cc(OC)c(OC)c(OC)c3)SC2=S)sc2c1CCCC2
 : . | -0.14
COC(=O)CCc1c(C)[nH]c(=S)[nH]c1=O
 : 0.75 | -0.51
Cc1ccc2nc(NCn3nc(-c4ccccc4)oc3=S)sc2c1
 : 0.35 | -0.33
CN1C2CCC1CC(OC(=O)CCN1CCOCC1)C2 (stereo not given)
 : -0.25 | -0.41
O=c1ccnc(NCCc2ccccc2)[nH]1
 : -0.8 | .
COc1ccc(C(=O)N(CC#N)CC#N)cc1
 : 0.3 | 0.11
CCCCOc1ccc(C(=O)Oc2ccc(C(C)(C)C)cc2)cc1
 : . | -0.28
CC(C)(C)c1ccc(/C=C2/NC(=O)N(Cc3ccc(Br)cc3)C2=O)cc1
 : -0.15 | 0.06
O=C(Nc1ccccc1F)c1ccc(N2CC3CC(C2)c2cccc(=O)n2C3)c(NC(=O)c2ccc(Br)o2)c1 (stereo not given)
 : . | 0.005
CCN(CC)CCSc1ccc(-c2ccccn2)nn1
 : -0.6 | .
Cc1sc(/N=C/c2c[nH]c3ccccc23)c(C#N)c1C
 : 2.8 | -1
O=C(c1ccco1)N1CCN(C(c2ccccc2)c2nnnn2Cc2ccccc2)CC1 (stereo not given)
 : 0 | .
COC(=O)c1cc(-c2cccs2)nc2c1c(C)nn2-c1ccccc1
 : 1.4 | .
CCc1ccc(S(=O)(=O)Nc2cc3c(C(=O)OC)c(COC)oc3c3ccccc23)cc1
 : . | 2
CCOC(=O)N1CCN(S(=O)(=O)c2ccc(C(=O)Nc3ccc4nc(SC)sc4c3)cc2)CC1
 : 0.9 | .
FC(F)(F)c1cccc(-c2[nH]ncc2-c2ccc3ccccc3n2)c1
 : . | 1.2
O=C(CSc1nnc(-c2cnccn2)s1)Nc1ccccc1
 : 0.9 | 2
O=C(O)C1CCN(C(=O)c2cccs2)CC1
 : -0.05 | .
CC/C(=N\O)c1ccc(CCCCCC(=O)O)s1
 : 0.25 | 0.15

Next section:
Sequence of screens – AID504770 | CapD inh
Cc1cc(OC(=O)C2COc3ccccc3O2)cc(C)c1Cl (stereo not given)
 : -0.75 | -0.95
CCN(CCN1C(=O)c2c(C)nc3ccc(Br)cc3c2C1=O)c1cccc(C)c1
 : . | -1.7
CCN1CCCC1CNC(=O)NC1CC(=O)N(c2ccc(C)cc2)C1 (stereo not given)
 : -0.6 | .
COc1ccc(C(=O)NC(c2ccc([N+](=O)[O-])cc2)c2cc(Cl)c3cccnc3c2O)cc1 (stereo not given)
 : . | -0.43
CN(C)CC(=O)N1c2ccccc2CCc2ccc(NC(N)=O)cc21
 : . | 6.2
CCOc1cccc(C(=O)Nc2cccc(-c3nc4ccccc4[nH]3)c2C)c1
 : 1.6 | -0.55
NCCCOC1CCCCC1
 : 1.2 | .
Cc1cccc(-n2cnc3sc4c(c3c2=O)CCCC4)c1
 : 0.25 | -0.06
CN1C(=O)NC(c2cccnc2)C(C(=O)c2cccs2)C1(O)C(F)(F)F (stereo not given)
 : 0 | 0.045
Cc1ccc(N=Cc2ccccc2O)c(C(=O)c2ccccc2)c1
 : -0.45 | -0.4
O=C(c1cccc(N2C(=O)C3C4C=CC(C4)C3C2=O)c1)N1CC=C(c2ccccc2)CC1 (stereo not given)
 : . | -0.53
OCc1ccc(O)c2ncccc12
 : -0.55 | -0.6
c1ccc(-c2cn3ncsc3n2)cc1
 : -1.1 | -0.63
COc1ccc2nc(-c3ccccc3)cc(C(=O)O)c2c1
 : 0 | 83
COCCn1c(C2CC(=O)N(CC(C)C)C2)nc2ccccc21 (stereo not given)
 : -0.85 | -0.3
Clc1ccc2c(Nc3ccc(I)cc3)ncnc2c1
 : . | 1.1
COc1ccccc1OCC#CCNCC1CCCO1 (stereo not given)
 : 0.4 | 0.21
CCC(C)OC(=O)COc1ccc2c(=O)c(Oc3ccccc3Cl)coc2c1 (stereo not given)
 : 0.6 | -0.39
S=C1NCCCN1C1CCCCC1
 : . | 0.1
COc1ccc(CN(C)C(=O)COc2ncnc3ccccc23)c(OC)c1OC
 : 2.5 | .

The list goes on.
Sequence of screens – AID504770 | CapD inh
O=C(c1c2c(nc3ccccc13)CCCC2)N1CCOCC1
 : 0.95 | -0.025
O=C(OC1CCCCC1)c1nnsc1S(=O)(=O)c1ccc(Cl)cc1
 : . | 0.53
COc1ccc(CN2CCCC(COC(=O)N3CC=C(n4c(=O)[nH]c5ccccc54)CC3)C2)cc1OCc1ccccc1 (stereo not given)
 : . | 0.4
COc1ccc(/C(C#N)=C/c2cccc(O)c2)cc1OC
 : -0.25 | 65
CC12CCC(=O)C=C1CCC1(C)C2(C)CCC2(C)C(C(=O)CO)CCC21C (stereo not given)
 : -0.1 | 0.07
CCN(CC)Cc1c(O)ccc2cc(-c3nc4ccccc4[nH]3)c(=O)oc12
 : 0.25 | 0.85
CCCn1c(-c2ccccc2)nc2ccccc21
 : -0.6 | .
CSc1nnc(Cc2ccccc2)c(=O)[nH]1
 : -0.7 | -0.45
COc1ccccc1NCC(=O)NN
 : -0.65 | 0.15
CCOC(=O)c1ccc(OCC(=O)OC)cc1
 : 0.2 | -0.32
CSC(=CC(=O)c1cccs1)SC
 : -0.8 | -3.5
Cc1noc(-c2ccc(C(F)(F)F)cc2)c1C(=O)NNC(=O)C(NC(=O)Cc1c[nH]c2ccccc12)C(C)C (stereo not given)
 : . | -0.7
COc1cccc(N/C=C(\C#N)c2nc(-c3ccccc3)cs2)c1
 : 2.5 | -0.41
OC1(C(F)(F)F)CC(c2nccs2)=NN1 (stereo not given)
 : -1.1 | 0.65
N#Cc1ccc(CN2C(=O)CC3(CCCC3)C2=O)cc1
 : -0.2 | .
CN(C)C(=O)CSc1nc2ccc(Cl)cc2o1
 : . | 0.15
N#Cc1c(NC(=O)C#Cc2ccccc2)sc2c1CCC2
 : 1.7 | -1
COc1ccc(C2=NN(C(=O)c3cccs3)C(c3ccccc3Cl)C2)cc1 (stereo not given)
 : . | 0.45
CN(C(=O)Cn1ncc2c([nH]c3ccccc32)c1=O)c1ccccc1
 : 0.3 | 2.7
COc1ccc(CN(C)C(=O)COc2ccc(-c3nnco3)cc2)c(OC)c1OC
 : 0.45 | .

New compounds follow:
Sequence of screens – AID504770 | CapD inh
COc1cc(Cl)c(NC(=O)CC(C)n2nc(C)cc2C)c(OC)c1 (stereo not given)
 : 0.75 | 0.37
CCOC(=O)C1C(=O)NC(SCC(=O)Nc2ccc(CC)cc2)=C(C#N)C1c1ccccc1Cl (stereo not given)
 : . | -0.21
CC[C@H]1CN2CCC1C[C@@H]2[C@@H](O)c1ccnc2ccc(OC)cc12 (stereo not given in full)
 : 1.1 | 0.015
OC(CNCc1cccc(Cl)c1)(c1ccccc1)c1ccccc1
 : . | -0.26
Cc1cccc(N2CCN(CCCNC(=O)CCN3C(=O)c4cccnc4Sc4ccccc43)C(C)C2)c1 (stereo not given)
 : -0.35 | 0.065
COc1ccc(NC(=O)Cn2cnc([N+](=O)[O-])n2)c(OC)c1
 : . | -0.23
Cc1ccc(N2CCN(c3ccc(C)cc3)C2c2cccc(Cl)c2Cl)cc1
 : . | 0.005
COc1cccc(C(=O)NC2=NC(c3ccccc3Cl)CC(=O)N2)c1 (stereo not given)
 : 0.95 | 0.4
COc1ccc(C(CN)c2c[nH]c3ccccc23)cc1 (stereo not given)
 : -0.7 | .
COc1cc2c(cc1OC)C(Cc1ccc(O)cc1)N(C)CC2 (stereo not given)
 : 0.45 | .
CCOC(=O)c1[nH]c2ccc(OC)cc2c1NC(=O)CN1CCCCC1
 : . | 16
O=C(NNC(=S)Nc1cccc(Cl)c1)c1ccccc1-n1cccc1
 : . | -0.43
COC(=O)NC1(C(F)(F)F)Oc2cc(Cl)c(Cl)cc2O1
 : -0.7 | i
O=C(COc1ccc(Oc2ccccc2)cc1)NCc1cn2ccsc2n1
 : -0.3 | .
COc1ccc(C2C(C#N)=C(N)N(c3ccc(OC)cc3OC)C3=C2C(=O)CC(C)(C)C3)cc1 (stereo not given)
 : . | 0.58
Nc1nc(SC(C(=O)c2c[nH]c3ccccc23)c2ccccc2)n[nH]1 (stereo not given)
 : 2.1 | .
CC(=O)Nc1cc(C2CC2)[nH]n1
 : -0.2 | -0.39
Cc1ccc(S(=O)(=O)N2CCC(C(=O)N3CCCC(C)C3)CC2)cc1 (stereo not given)
 : -0.4 | -0.2
COC(=O)C1=C(C)NC2=C(C(=O)CC(c3ccc(OC)c(OC)c3)C2)C1c1ccccc1OC(C)C (stereo not given)
 : . | 4.1
Cc1onc(-c2c(F)cccc2Cl)c1C(=O)NC(=S)NCc1cccnc1
 : 2.2 | -1.4

(listing goes on)
Sequence of screens – AID504770 | CapD inh
CC(=O)Nc1ccc(C(=O)NC(CCCCNC(=O)OCc2ccccc2)C(=O)OC(C)(C)C)cc1 (stereo not given)
 : . | 0.075
c1ccc(CN2C3=NCCN3c3ccccc32)cc1
 : . | -0.35
O=C(Cc1ccc(Cl)cc1)Nc1ccc2[nH]c(=O)[nH]c2c1
 : -0.15 | 0.28
COc1ccc(C)cc1NC(=O)C(Sc1nnnn1Cc1cccs1)c1ccccc1 (stereo not given)
 : 0.6 | .
CCc1cc2ccccc2nc1SCC(=O)N1CCCC1
 : -0.4 | .
O=C(NCCn1ccc2ccccc21)c1ccc(Br)o1
 : -0.2 | -0.58
Cc1cc(NCc2ccccc2)no1
 : -0.65 | 0.28
Cc1cc2c(cc1[N+](=O)[O-])-c1ncccc1C2
 : . | -0.19
CC(C)c1ccc(-n2c(NN)nc3ccccc3c2=O)cc1
 : 1.9 | .
NC(=S)N/N=C/C=C/c1ccccc1
 : -0.45 | -2.4
O=C(NC(CO)Cc1ccccc1)c1ccccc1C(F)(F)F (stereo not given)
 : 0.05 | 0.27
Cc1ccc2cc(CN(CCN(C)C)C(=O)NC3CCCCC3)c(=O)[nH]c2c1
 : 0 | .
Cc1[nH]c2ccccc2c1C=NCCc1ccncc1
 : 0.05 | 8.9
O=C(CSc1nnc(-c2ccccc2F)n1C1CC1)c1ccc(Cl)s1
 : 1.3 | .
OCCn1c(SCCSc2nc3ccccc3n2CCO)nc2ccccc21
 : . | -0.14
O=C(Nc1cccc(Cl)c1Cl)C1CC(=O)N(Cc2ccccc2)C1 (stereo not given)
 : 0.4 | 0.78
O=C(N/N=C/c1ccc(O)cc1)c1cc2ccccc2s1
 : . | 1.1
O=C(CSc1nnc(SCC(=O)c2ccccc2)s1)c1ccccc1
 : 0.9 | -0.4
CC1=C(C)CC(C(=O)Nc2cccc(C)c2C)C(C(=O)O)C1 (stereo not given)
 : 0.1 | 1
O=C(O)Cn1nnnc1SCC(=O)Nc1ccc(F)cc1F
 : 0.1 | .

Exported with bars between the fields: two of the compounds above.
structure | AID504770 | CapD inh
Cc1onc(-c2c(F)cccc2Cl)c1C(=O)NC(=S)NCc1cccnc1 | 2.2 | -1.4
CC(=O)Nc1ccc(C(=O)NC(CCCCNC(=O)OCc2ccccc2)C(=O)OC(C)(C)C)cc1 (stereo not given) | . | 0.075

Not all compounds are listed. The share of hits here may be higher or lower than overall.
